Prx2 Sm inh = Schistosoma mansoni Prx2 inhibition | S. mansoni Prx2 activity coupled to TGR/GSH (TGR is thioredoxin glutathione reductase), NADPH fluorescence loss, qHTS; some inactives read as strong as hits | Potency, µM | 0.07% of 65,000 active | AID 448; active means full or partial inhibition curve with a strong effect at the top dose; inconclusive means weaker partial or single-point curve; inactive means no accepted curve; note: series up to 57 µM; many of its hits are not listed in these tables
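Coupled assay in which S. mansoni TGR passes NADPH reducing equivalents via glutathione to Prx2, which reduces H2O2. Compounds were preincubated 15 min at room temperature with 25 nM TGR/50 nM Prx2 mix. Kinetic NADPH fluorescence loss (ex 365/em 450 nm) was monitored.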
LT uptake inh = inhibitors of anthrax lethal toxin internalization; Cells, anthrax lethal toxin internalization, FRET ratio (460/530); Potency, µM (highest dose often 40 µM), inactives show at the highest dose activity change, negative = inhibition, hits mostly inhibitors; 0.67% of 70,000 active; AID 912; active = well fitted falling ratio curve with the 530 nm signal flat; inconclusive = other ratio curves, or a change in one channel alone; inactive = flat curves in the ratio and both channels; the % refers to the ratio; note: % is set by controls: 0 for no effect and ±100 for the full control effect; nearly all actives have a fitted effect of over 50% in size; tested in ME-180 cells; beta-lactamase reporter
An asterisk follows results filed as active; ? = inconclusive; . = not tested or not shown; [ ] = dose if it differs, or a comment. Potency is the fitted concentration of half-maximal effect. An excerpt, so the mix of outcomes need not match the whole.

SMILES	Prx2 Sm inh	LT uptake inh
O=S(=O)(c1ccc(N2CCN(c3ccc(F)cc3)CC2)cc1)N1CCCC1	>57	-23%
CCn1c(SCC(=O)Nc2ccccc2)nnc1-c1ccc(S(=O)(=O)N2CCOCC2)cc1	>57	-2%
CC1(C)CC(=O)C(C=NCCN2CCN(C(=O)c3ccccc3)CC2)=C(O)C1	.	3%
Cc1c(C)n(Cc2ccccc2)c2ncnc(N)c12	>57	3%
O=C(C1=COCCO1)N1CCN(S(=O)(=O)c2cccc(Cl)c2Cl)CC1	>57	?
O=C1CC(C(=O)NCc2ccccc2)N=C(N2CCCCC2)N1 (configuration not stated)	>57	8%
Cc1cc(O)ccc1Cl	.	-10%
C=CCSc1nc(C)c(CC(=O)OCCCC)c(=O)[nH]1	>57	6%
CCOc1ccc(C(C)=O)cc1CSc1nnc(-c2cccs2)n1CC1CCCO1 (configuration not stated)	>57	-9%
O=C(Cc1cccs1)NCc1ccc(F)cc1	>57	.
O=C(COC(=O)c1cncc(Br)c1)NCC1CCCO1 (configuration not stated)	>57	5%
CCOC(=O)Oc1c(OC)cc(C(=O)O[C@H]2C[C@H]3CN4CCc5c([nH]c6cc(OC)ccc56)[C@@H]4C[C@H]3[C@@H](C(=O)OC)[C@@H]2OC)cc1OC	>57	5%[3.58 µM]
CCOC(=O)c1cnc2ccccc2c1NCCO	>57	4%
COc1ccc(OC)c(C2c3c(oc4ccccc4c3=O)C(=O)N2CCCN(C)C)c1 (configuration not stated)	>57	-2%
Cc1ccc(-c2nc(CS(=O)(=O)CC(=O)N3CCc4ccccc4C3)c(C)o2)cc1	>57	-20%
COC(=O)CCC(=O)N1CCc2cc(S(=O)(=O)N3CCN(c4ccccc4Cl)CC3)ccc21	>57	-17%
O=C(O)Cn1c(SCCOc2ccccc2F)nc2ccccc21	>57	2%
Cc1nc2nc(SCC(N)=O)[nH]c2cc1Br	>57	3%
OC(COc1ccc(OCc2ccccc2)cc1)CN1CCOCC1 (configuration not stated)	>57	.
COc1cccc(Cn2c(=O)c(CCc3ccccc3)nc3cnc(N4CCN(C)CC4)nc32)c1	>57	?
c1ccncc1	.	?
CSc1nc(C)c(C(=O)Nc2ccccc2)c(C)c1C#N	>57	-12%
CCOc1nc2c(c(=O)n(C)c(=O)n2C)n1Cc1ccccc1Cl	>57	-4%
COc1ccc(C2NCCC3(O)CCCCC23)c(OC)c1OC (configuration not stated)	>57	4%
Cc1ccc(SCC(=O)NCCCN2CCOCC2)cc1	>57	.
O=S1(=O)C=C(SCCN2CCCCC2)c2ccccc21	.	8%
Cc1cc(SCC#N)n2nc(C)c(-c3ccccc3)c2n1	>57	-19%
CC(C)Cn1cnc2c(Sc3c([N+](=O)[O-])ncn3C)nc(N)nc21	>57	-17%[8 µM]
Cc1nn(C)c(C)c1S(=O)(=O)N1CCCC(C(=O)NC2CCCCC2)C1 (configuration not stated)	>57	-4%
COc1ccc(CC(=O)N2CCNC2=O)cc1	>57	-6%
CC[C@H]1OC(=O)[C@H](C)[C@@H](O[C@H]2C[C@@](C)(OC)[C@@H](O)[C@H](C)O2)[C@H](C)[C@@H](O[C@@H]2O[C@H](C)C[C@H](N(C)C)[C@H]2O)[C@](C)(O)C[C@@H](C)CN(C)[C@H](C)[C@@H](O)[C@]1(C)O	.	-15%
O=C(c1ccc(F)cc1)N1CCCCC(Sc2nnc3ccccn23)C1=O (configuration not stated)	>57	-3%
CCn1c(SCc2nc3ccccc3c(=O)[nH]2)nc2ccccc2c1=O	>57	-2%
CCN(CC)C(=O)CC(c1ccc(F)cc1)c1ccco1 (configuration not stated)	>57	19%
COc1ccc(N2CCN(CCNC(=O)c3ccc(NC(=O)C4CCCO4)cc3)CC2)cc1 (configuration not stated)	>57	3%
CCc1c(C(=O)NCc2ccc3c(c2)OCO3)[nH]c(C)c1C(C)=O	>57	4%
COC(=O)c1ccc(C2C(C(C)=O)=C(O)C(=O)N2CCO)cc1 (configuration not stated)	>57	-7%
Cc1ccc(N2CCN(C(=O)c3ccccc3F)CC2)c(C)c1	>57	-27%
CCOC(=O)Cc1csc(NC(=O)CC)n1	.	3%
CCOC(=O)c1[nH]c(C)c(C(=O)Nc2ccccc2C)c1C	>57	-14%

Taken from above (3 entries):
SMILES	Prx2 Sm inh	LT uptake inh
Cc1ccc(N2CCN(C(=O)c3ccccc3F)CC2)c(C)c1	>57	-27%
CCOC(=O)Cc1csc(NC(=O)CC)n1	.	3%
CCOC(=O)c1[nH]c(C)c(C(=O)Nc2ccccc2C)c1C	>57	-14%

Going on with the list:
SMILES	Prx2 Sm inh	LT uptake inh
CCCC[C@@H]1C[C@H]1C(NC(=O)c1ccco1)c1ccc(Cl)cc1 (some centres not stated)	>57	?
CCCc1nnc(NC(=O)CCC(=O)N2CCN(CCn3c(C)ccc3C)CC2)s1	>57	7%
CN(Cc1ccccc1)C(=O)N[C@@H](Cc1ccccc1)C(=O)O	>57	3%
CCCCn1c(SCc2ccc(C(=O)OC)o2)nc2cc(S(N)(=O)=O)ccc21	>57	7%
COc1ccc(CCN2CCC(Nc3nc4ccccc4n3Cc3ccc(F)cc3)CC2)cc1	>57	?
CCNc1nc(SC(C(C)=O)C(C)=O)nc(N(C)C)n1	>57	-2%
COCCCn1c(=O)c2ccccc2c2ccccc2c1=O	>57	-3%
COCCNc1ncncc1-c1c(C)noc1C	>57	-3%
CCOc1ccccc1NC(=O)COc1cccc(-n2cnnn2)c1	>57	-10%
FC(F)(F)c1ccccc1-c1nc(N2CCOCC2)c2ccccc2n1	>57	-6%
COc1ccc(C(=O)NCCn2cc(SCC(=O)NCc3ccco3)c3ccccc32)cc1	>57	-1%
Cc1cc(NS(=O)(=O)c2ccccc2)no1	>57	-4%
CC(C)n1nnnc1SCC(=O)NCc1ccco1	>57	-10%
N#CCCn1c(=O)cnc2cnc(Nc3ccccc3)nc21	>57	?
CCc1ccc2[nH]c(=O)c(CN(CCN(CC)CC)C(=O)Nc3ccccc3OC)cc2c1	>57	2%
c1ccc(-c2noc(-c3ccco3)n2)nc1	>57	-21%
COc1ccc(-n2c(Cc3cccn3C)nnc2SCC(=O)NCCc2ccccc2)cc1	>57	0%
CCOC(=O)Cn1ncc2c(=O)oc3ccccc3c21	>57	-2%
COCCNC(=O)c1csc2c1CCCC2	>57	-1%
CCOC(=O)N1CCN(C(=O)c2ccc3nc4ccc(Cl)cc4c(=O)n3c2)CC1	>57	1%

Single records, as listed above. Screens in order: Prx2 Sm inh	LT uptake inh
COc1ccc(-n2c(Cc3cccn3C)nnc2SCC(=O)NCCc2ccccc2)cc1 as listed: >57	0%
c1ccc(-c2noc(-c3ccco3)n2)nc1 as listed: >57	-21%
CCOC(=O)N1CCN(C(=O)c2ccc3nc4ccc(Cl)cc4c(=O)n3c2)CC1 as listed: >57	1%

Next compounds
SMILES	Prx2 Sm inh	LT uptake inh
O=C(Cn1cc2c(n1)CCCC2)Nc1ccccc1Br	>57	-19%
CCOCCCNC(=O)Cc1c(C(=O)O)[nH]c2ccc(Cl)cc12	>57	6%
COc1ccccc1NC(=O)CSc1nc(O)cc(=O)n1C	>57	17%
COc1cc(OC)cc(-c2cc3nc4c(c(N5CCN(c6ncccn6)CC5)n3n2)CCCC4)c1	>57	-13%
Cc1cc(C)c(S(=O)(=O)NCCC2CCCN2C)c(C)c1 (configuration not stated)	>57	?
COc1cccc2c1C(=O)c1c(O)c3c(c(O)c1C2=O)C[C@@](O)(C(=O)CO)C[C@H]3O[C@H]1C[C@@H](N)[C@H](O)[C@@H](C)O1.[W]	>57	0%[8 µM]
Cc1cccc(NC(=O)CC2NC3CCCCC3NC2=O)c1 (configuration not stated)	>57	-6%
CN1CCN(S(=O)(=O)c2ccc(NC(=O)c3ccc(Br)o3)cc2)CC1	>57	4%
COC(=O)c1ccc(Oc2nc(NC(C)C)nc(N(C)C)n2)cc1	>57	-5%
COc1ccc(C(=O)N(CCN2CCOCC2)CC(=O)NC2CCCC2)cc1OC	>57	-1%
O=C(O)c1ccc(C(=O)O)c2c(C(=O)O)ccc(C(=O)O)c12	>57	-1%[8 µM]
O=C(C1CCCN(S(=O)(=O)c2cccc3cccnc23)C1)N1CCN(c2ccccc2F)CC1 (configuration not stated)	>57	?
O=C(NCc1ccc2c(c1)OCO2)Oc1ccccc1	>57	-8%
O=C(CCCc1ccccn1)c1ccccc1	>57	5%[8 µM]
CCC1(COC(NC(=O)c2cccnc2)(C(F)(F)F)C(F)(F)F)COC1	>57	-10%
Cc1c(C(=O)NCc2ccc3c(c2)OCO3)oc2ccc(S(=O)(=O)N3CCCCCC3)cc12	>57	?
CC1(C)CC(NS(=O)(=O)c2ccc(S(=O)(=O)N3CCOCC3)cc2)CCO1 (configuration not stated)	>57	6%
ClCCl	.	0%
CCOC(=O)c1cc2ccc(OC)c(OC)c2c(=O)s1	>57	-2%
O=C(COc1ccc(Cl)cc1)NCc1nnc(SCC(=O)c2ccccc2)o1	>57	-17%
O=C(NCc1cccs1)Nc1ccc2c(c1)OCO2	>57	-3%
CCOC(=O)CC(=O)CSc1nc2c(sc(=S)n2-c2ccccc2)c(=O)[nH]1	>57	?
O=C(Nc1ccc2c(c1)OCO2)C1CCCN1C(=O)Nc1ccccc1F (configuration not stated)	>57	?
CCC(C)n1cnc2c(c1=O)c1nc3ccccc3nc1n2-c1ccc2c(c1)OCCO2 (configuration not stated)	>57	16%
COC(=O)c1cc2occc2n1CC(=O)N(C)C1CCCCC1	>57	14%
Cc1ccc(CS(=O)(=O)CCC(=O)NCCN2CCCC2)cc1	>57	1%
Cn1c(=O)c2[nH]c(CCCc3ccc([N+](=O)[O-])cc3)nc2n(C)c1=O	>57	?
Cc1cc(C2=CC(C)(c3cc(C)oc3C)Nc3nc(C(F)(F)F)nn32)c(C)o1 (configuration not stated)	>57	?
COc1cc(C2c3c(oc4ccc(C)cc4c3=O)C(=O)N2c2cc(C)ccn2)cc(OC)c1OC (configuration not stated)	>57	14%
CCCOC(=O)/C(C(N)=NCc1ccccc1)=C(\O)OCCC	.	-25%
CCCN(CC1CC1)C(=O)Nc1ccccc1C	>57	7%
COC(=O)COc1cccc(NS(=O)(=O)c2ccc(NC(C)=O)cc2)c1	>57	?
CC12CCC(C(N)=O)(c3nc4ccccc4nc31)C2(C)C (configuration not stated)	>57	-2%
COCCNC(=O)C1(C)C=CCN1C(C)=O (configuration not stated)	.	7%
CCOC(=O)C1CCN(C(=O)CNC(=O)OC(C)(C)C)CC1	>57	0%
Cc1coc2cc3oc(=O)c4c(c3cc12)CCCC4	.	-7%
COc1ccc(CCC2(C)NC(=O)NC2=O)cc1 (configuration not stated)	>57	1%
CC(C)CNC(=O)CN(C1CCCCC1)S(=O)(=O)c1ccccc1	>57	-1%
O=C1Nc2ccc(Br)cc2C1(O)Cc1ccncc1 (configuration not stated)	>57	3%
Cc1cc(C(=O)Nc2sc3c(c2C#N)CCC3)no1	>57	-16%
CC(C)(C)c1ccc(OCc2nc(-c3ccccn3)no2)c(Br)c1	>57	?
CCCn1c(C)nc2c(c1=O)c1nc3ccccc3nc1n2CCC1=CCCCC1	>57	-2%
COC(=O)C1(S(=O)(=O)c2cccc3nsnc23)CC1	>57	-8%
CC(C)(C)c1ccc(O)c(CN(Cc2c(O)ccc3ccccc23)C2CCCCC2)c1	>57	?
CC[C@H]1CN2CC[C@@H]1C[C@@H]2[C@H](O)c1ccnc2ccccc12	>57	-14%
COCCn1c(=O)c(-c2ccc(Cl)cc2)nc2cncnc21	>57	?
CC(C)(C)NC(=O)c1ccc2nccnc2c1	>57	?
CCCCCC(=O)N1CCN(c2ccc(C(C)=O)cc2F)CC1	>57	-11%
CCOc1ccc2nc(NC(=O)CSc3nc4ccccc4c(=O)n3Cc3ccco3)sc2c1	>57	3%
FC(F)(F)c1cccc(Nc2ncnc3ccccc23)c1	>57	-8%
(listing goes on)
SMILES	Prx2 Sm inh	LT uptake inh
CCC1(CC)NC(=O)N(CC(=O)OCn2nnc3ccccc3c2=O)C1=O	>57	0%
COc1cccc(Cn2c(=O)c(-c3cccc(C#N)c3)nc3cnc(Nc4ccccc4)nc32)c1	>57	?
N#Cc1nc(-c2ccco2)oc1NCCCn1ccnc1	>57	9%
Cc1cc(C)c(NC(=O)C[C@H](CC(=O)O)c2cccc3ccccc23)c(C(=O)N2CCC3(CCCC3)CC2)c1	>57	8%
CN(Cc1ccco1)c1cc(-c2ccccc2C(F)(F)F)ncn1	>57	?
NC(=O)C1CCN(Cc2nc(-c3ccccc3)no2)CC1	>57	-5%
C=CCn1c(SCC(=O)Nc2ccc3c(c2)OCO3)nnc1-c1ccccc1	>57	.
CCOP(=S)(OCC)SCCSCC	.	-8%
Clc1ccccc1CSc1nnc(-c2ccccn2)n1Cc1ccco1	>57	?
CCN(CC)C(=O)COC(=O)c1ccc(O)cc1	.	9%
CCCc1cc(N2CCCC2)n2nc(C)c(-c3ccccc3)c2n1	>57	?
CC(=O)NCCNc1ccnc(-c2ccccc2C(F)(F)F)n1	>57	?

Reprinted at random: four records from the list
SMILES	Prx2 Sm inh	LT uptake inh
CCOP(=S)(OCC)SCCSCC	.	-8%
CCN(CC)C(=O)COC(=O)c1ccc(O)cc1	.	9%
CCCc1cc(N2CCCC2)n2nc(C)c(-c3ccccc3)c2n1	>57	?
Cc1cc(C)c(NC(=O)C[C@H](CC(=O)O)c2cccc3ccccc23)c(C(=O)N2CCC3(CCCC3)CC2)c1	>57	8%

From PubChem
